FGF22 binding – shifts melting point of recombinant human FGF22 | Q9HCT0 | recombinant FGF22 thermal shift, SYPRO orange fluorescence; percent of sucrose octasulfate shift, DMSO zero | calls only at 9.99 µM | 1.5% of 340,000 active | AID 651658;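 active = melting point raised past a set limit in the mean and every replicate; three in four hits are not shown here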
Target sequence (Q9HCT0 whole entry, looked up): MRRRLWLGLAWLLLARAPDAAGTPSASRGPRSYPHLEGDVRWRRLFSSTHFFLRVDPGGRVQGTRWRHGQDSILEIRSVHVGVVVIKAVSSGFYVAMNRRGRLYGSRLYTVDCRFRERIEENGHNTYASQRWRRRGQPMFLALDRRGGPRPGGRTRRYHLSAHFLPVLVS
Calls only; i = inactive. An excerpt (hit frequency here may not be typical).

The opening two records, ahead of the listing:
SMILES | FGF22 binding
Cc1ccc(S(=O)(=O)Nc2ccc3c(c2)C(=O)N([C@@H](C)CO)C[C@H](C)[C@@H](CN(C)S(=O)(=O)c2ccc(C)cc2)OCCCC[C@H](C)O3)cc1 | i
O=C(C[C@H]1CC[C@H](NC(=O)c2cnccn2)[C@@H](CO)O1)NCc1ccccc1F | i

All compounds of this part, from the first entry:
SMILES | FGF22 binding
Cc1ccc(S(=O)(=O)Nc2ccc3c(c2)C(=O)N([C@@H](C)CO)C[C@H](C)[C@@H](CN(C)S(=O)(=O)c2ccc(C)cc2)OCCCC[C@H](C)O3)cc1 | i
O=C(C[C@H]1CC[C@H](NC(=O)c2cnccn2)[C@@H](CO)O1)NCc1ccccc1F | i
Cc1ccc(S(=O)(=O)N(C)C[C@H]2OCCCC[C@@H](C)Oc3ccc(NS(=O)(=O)c4cn(C)cn4)cc3C(=O)N([C@H](C)CO)C[C@@H]2C)cc1 | i
CN1C(=O)c2cc(NC(=O)Cc3cccs3)ccc2OC[C@H]2O[C@H](CC(=O)NCCCN3CCOCC3)CC[C@@H]21 | i
CN(C)CCCNC(=O)C[C@@H]1C=C[C@H](NC(=O)Cc2cccnc2)[C@@H](CO)O1 | i
C[C@H]1CN([C@@H](C)CO)C(=O)c2cccc(NC(=O)c3nc4ccccc4s3)c2O[C@H]1CN(C)S(=O)(=O)c1ccccc1 | i
COc1ccc(NC(=O)Nc2ccc3c(c2)C(=O)N([C@@H](C)CO)C[C@@H](C)[C@H](CN(C)C(=O)Nc2ccc4c(c2)OCO4)O3)cc1 | i
O=C(C[C@H]1CC[C@H]2[C@@H](COC[C@@H](O)CN2CCC(F)(F)F)O1)NCC1CC1 | i
COC(=O)[C@H](Cc1ccccc1)N1Cc2ccccc2Oc2cc(Br)ccc2S1(=O)=O | i
Cc1noc(C)c1S(=O)(=O)Nc1ccc2c(c1)C(=O)N([C@@H](C)CO)C[C@H](C)[C@@H](CN(C)CC1CCCCC1)OCCCC[C@H](C)O2 | i

Shown tab-delimited: 7 of the compounds above
Molecule	FGF22 binding
Cc1ccc(S(=O)(=O)N(C)C[C@H]2OCCCC[C@@H](C)Oc3ccc(NS(=O)(=O)c4cn(C)cn4)cc3C(=O)N([C@H](C)CO)C[C@@H]2C)cc1	i
CN1C(=O)c2cc(NC(=O)Cc3cccs3)ccc2OC[C@H]2O[C@H](CC(=O)NCCCN3CCOCC3)CC[C@@H]21	i
CN(C)CCCNC(=O)C[C@@H]1C=C[C@H](NC(=O)Cc2cccnc2)[C@@H](CO)O1	i
C[C@H]1CN([C@@H](C)CO)C(=O)c2cccc(NC(=O)c3nc4ccccc4s3)c2O[C@H]1CN(C)S(=O)(=O)c1ccccc1	i
COc1ccc(NC(=O)Nc2ccc3c(c2)C(=O)N([C@@H](C)CO)C[C@@H](C)[C@H](CN(C)C(=O)Nc2ccc4c(c2)OCO4)O3)cc1	i
O=C(C[C@H]1CC[C@H]2[C@@H](COC[C@@H](O)CN2CCC(F)(F)F)O1)NCC1CC1	i
COC(=O)[C@H](Cc1ccccc1)N1Cc2ccccc2Oc2cc(Br)ccc2S1(=O)=O	i

Other results.
SMILES | FGF22 binding
Cc1ccccc1S(=O)(=O)N1C[C@H](O)COC[C@@H]2O[C@@H](CC(=O)N3CCCCC3)CC[C@H]21 | i
O=S(=O)(N[C@@H]1CC[C@H](CCn2cc(C3(O)CCCC3)nn2)O[C@H]1CO)c1ccc(F)cc1 | i
Cc1ccccc1-c1ccc2c(c1)O[C@@H](CN(C)C)[C@H](C)CN([C@@H](C)CO)S2(=O)=O | i
N#C[C@H]1[C@@H](c2ccc(-c3cccc(F)c3)cc2)[C@H](CO)N1C(=O)NC1CCCC1 | i
COCC#Cc1cnc2c(c1)C(=O)N([C@H](C)CO)C[C@@H](C)[C@H](CN(C)C(=O)Nc1c(C)noc1C)O2 | i
C[C@@H]1CN([C@@H](C)CO)C(=O)c2cc(NS(C)(=O)=O)ccc2O[C@H]1CN(C)S(=O)(=O)c1cccs1 | i
CN1c2ccc(Br)cc2[C@H]2[C@H](CCN2C(=O)C2CCCCC2)[C@H]1CO | i
CNC[C@H]1Oc2c(NC(=O)C3CCOCC3)cccc2C(=O)N([C@@H](C)CO)C[C@@H]1C | i
C[C@H]1CN([C@@H](C)CO)C(=O)c2cccc(NC(=O)Nc3ccc(C(F)(F)F)cc3)c2O[C@H]1CN(C)S(=O)(=O)c1cn(C)cn1 | i
O=C(Nc1ccc(C(F)(F)F)cc1)N[C@H]1CC[C@@H](CCNC(=O)c2ccccc2F)O[C@@H]1CO | i
COc1ccc(NC(=O)N(C)C[C@H]2Oc3c(NC(=O)Nc4ccc(F)cc4)cccc3C(=O)N([C@H](C)CO)C[C@@H]2C)cc1 | i
CN(C)CC(=O)Nc1ccc2c(c1)[C@H]1C[C@H](CC(=O)NCc3ccc(-c4ccccc4)cc3)O[C@H](CO)[C@H]1O2 | i
CNC[C@H]1Oc2cc(C#CC(C)C)ccc2S(=O)(=O)N([C@@H](C)CO)C[C@H]1C | i
Cc1noc(C)c1S(=O)(=O)N(C)C[C@H]1OCc2ccccc2-c2c(n(C)c3ccccc23)C(=O)N([C@H](C)CO)C[C@@H]1C | i
N#Cc1ccc(-c2ccc3c(c2)[C@@H]2[C@@H](CCN2S(=O)(=O)c2cccc(F)c2)[C@H](CO)N3)cc1 | i
COCC(=O)Nc1ccc2c(c1)[C@@H]1C[C@@H](CC(=O)N3CCc4ccccc4C3)O[C@H](CO)[C@@H]1O2 | i
C=CC[C@H](OC(=O)Nc1ccc(SC)cc1)c1ccc(OCCO)cc1 | i
C[C@H](CO)N1C[C@H](C)[C@@H](CN(C)C(=O)N[C@H](C)c2ccccc2)OCc2ccccc2-c2c(n(C)c3ccccc23)C1=O | i
C[C@H]1[C@H](c2ccccc2)Oc2ccc(Cl)cc2S(=O)(=O)N1C[C@@H]1CCCN1C(=O)OC(C)(C)C | i
Cc1cc(C(=O)Nc2cccc3c2O[C@@H](CN(C)S(=O)(=O)c2ccc(F)cc2)[C@@H](C)CN([C@H](C)CO)C3=O)n(C)n1 | i
OC[C@@H]1[C@H](c2ccccc2)C2(CN(CC3CC3)C2)N1Cc1nccs1 | i
Cc1ccc(S(=O)(=O)N(C)C[C@@H]2Oc3ccc(NS(=O)(=O)c4ccccc4)cc3CC(=O)N([C@@H](C)CO)C[C@@H]2C)cc1 | i
C[C@@H]1CCCCO[C@H](CN(C)C(=O)c2ccncc2)[C@@H](C)CN([C@H](C)CO)C(=O)c2cc(NC(=O)NC3CCCCC3)ccc2O1 | i
CO[C@H]1CN(C)C(=O)c2cc(NS(=O)(=O)CC(F)(F)F)ccc2OC[C@@H](C)N(C(=O)NC(C)C)C[C@@H]1C | i
O=c1[nH]cnc2nn(C3OC(CO)C(O)C3O)nc12 (stereo not drawn) | i
C[C@@H]1CN([C@@H](C)CO)C(=O)c2cccc(NC(=O)C3CCCCC3)c2O[C@@H]1CN(C)C(=O)Nc1ccc(F)cc1 | i
CCOC(=O)C1=C(C(=O)OCC)C2N(Cc3ccc(C#N)cc3)c3ccccc3[C@@]23C[C@@H](C(=O)OC)N(S(=O)(=O)c2ccc(C)cc2)C3=N1 (stereo partly drawn) | i
C[C@H](CO)N1C[C@H](C)[C@@H](CN(C)Cc2ccc(C(=O)Nc3ccccc3N)cc2)Oc2c(cccc2N(C)C)C1=O | i
C[C@@H]1CCCCO[C@@H](CN(C)C(=O)Nc2ccc(F)cc2)[C@H](C)CN([C@H](C)CO)C(=O)c2cc(NS(=O)(=O)c3cn(C)cn3)ccc2O1 | i
CCc1cnc(N2[C@@H](C#N)[C@H](c3ccc(C#CC(C)C)cc3)[C@@H]2CO)s1 | i
NCC[C@H]1CC[C@H](NS(=O)(=O)c2ccccc2F)[C@@H](CO)O1 | i
O=C(CN1CCOCC1)NCC[C@H]1CC[C@H](NC(=O)c2ccc3c(c2)OCO3)[C@H](CO)O1 | i
C[C@H](CO)N1C[C@H](C)[C@@H](CN(C)C(=O)Nc2ccccc2)Oc2ccc(NC(=O)Cc3ccccc3)cc2CC1=O | i
C[C@@H](NC(=O)C[C@@H]1CC[C@H]2[C@@H](COC[C@H](O)CN2Cc2cc(F)ccc2F)O1)c1ccccc1 | i
CCC(=O)N(C)C[C@@H]1Oc2ncc(C#C[C@@H](C)O)cc2C(=O)N([C@@H](C)CO)C[C@@H]1C | i
CN(C)C(=O)[C@@H]1[C@@H](CO)[C@@H]2Cn3c(cccc3=O)[C@H]1N2CC1CCOCC1 | i
O=S(=O)(Cc1ccccc1)N1CCCCN2[C@@H](CO)[C@@H](c3ccc(-c4cncnc4)cc3)[C@@H]2C1 | i
CN1[C@@H]2c3ccc(-c4ccccc4)c(=O)n3C[C@H]1[C@H](CO)[C@H]2C(=O)Nc1nccs1 | i
COc1ccc2c3c(n(C)c2c1)[C@H](CO)N(C(C)=O)CC31CCN(Cc2cccnc2)CC1 | i
COc1ccc(S(=O)(=O)Nc2cccc3c2O[C@H](CN(C)Cc2ccncc2)[C@H](C)CN([C@@H](C)CO)C3=O)cc1 | i
C[C@H](NC(=O)[C@H]1[C@H](CO)[C@H]2Cn3c(ccc(C4=CCCCC4)c3=O)[C@H]2N1C)c1ccccc1 | i
C[C@@H]1CCCCO[C@H](CN(C)C(=O)Nc2ccccc2)[C@H](C)CN([C@H](C)CO)C(=O)c2cc(N(C)C)ccc2O1 | i
CN(C)C(=O)C[C@H]1CC[C@@H]2[C@H](COc3ccc(NC(=O)c4cnccn4)cc3C(=O)N2C)O1 | i
COc1ccc(-c2ccc3c(c2)O[C@@H](CN(C)C)[C@@H](C)CN([C@H](C)CO)S3(=O)=O)cc1 | i
COc1ccc(S(=O)(=O)Nc2ccc3c(c2)C(=O)N([C@@H](C)CO)C[C@@H](C)[C@@H](CN(C)CC2CC2)O3)cc1 | i
CN(C)CC(=O)Nc1ccc2c(c1)[C@H]1C[C@H](CC(=O)NCc3ccccc3F)O[C@@H](CO)[C@H]1O2 | i
C[C@H](CO)N1C[C@H](C)[C@H](CN(C)CC2CC2)Oc2cc(-c3ccccc3)ccc2S1(=O)=O | i
O=S(=O)(c1cccs1)N1CCCCN2[C@H](CO)[C@H](c3ccc(Br)cc3)[C@H]2C1 | i
Cc1ccccc1S(=O)(=O)N1[C@@H]2Cn3c(cccc3=O)[C@H]1[C@@H](C(=O)N1CCOCC1)[C@@H]2CO | i
CCCC#Cc1cnc2c(c1)C(=O)N([C@H](C)CO)C[C@@H](C)[C@@H](CN(C)C(=O)Nc1ccccc1F)O2 | i

Carrying on:
SMILES | FGF22 binding
CC(=O)Nc1ccc2c(c1)C(=O)N(C)[C@@H]1CC[C@H](CC(=O)NCc3ccc4c(c3)OCO4)O[C@H]1CO2 | i
NCC[C@H]1CC[C@@H](NC(=O)Cc2ccncc2)[C@H](CO)O1 | i
CCN(C[C@H]1N[C@@H](CO)[C@@H]1c1ccc(C2=CCCC2)cc1)C(=O)c1cccnc1 | i
CCS(=O)(=O)N1CC2(C1)CN(S(=O)(=O)c1ccc(C)cc1)[C@@H](CO)c1[nH]c3cc(OC)ccc3c12 | i
Cc1ccc(S(=O)(=O)N(C)C[C@H]2OCc3ccccc3-c3c(n(C)c4ccccc34)C(=O)N([C@@H](C)CO)C[C@H]2C)cc1 | i
C[C@@H]1CN([C@@H](C)CO)C(=O)Cc2cc(NC(=O)Cc3cn(C)c4ccccc34)ccc2O[C@H]1CN(C)Cc1ccc(Oc2ccccc2)cc1 | i
CCC(=O)Nc1ccc2c(c1)C(=O)N(C)[C@@H]1CC[C@@H](CC(=O)NC3CCCC3)O[C@@H]1CO2 | i
C[C@H](CO)N1C[C@H](C)[C@@H](CN(C)C(=O)Cc2ccccn2)Oc2ncc(/C=C/c3ccccc3)cc2C1=O | i
COCC(=O)Nc1ccc2c(c1)OC[C@H](C)N(Cc1cccnc1)C[C@@H](C)[C@H](OC)CN(C)C2=O | i
C[C@@H]1CN([C@H](C)CO)C(=O)c2cc(NS(=O)(=O)c3ccc(Cl)cc3)ccc2O[C@@H](C)CCCCO[C@@H]1CN(C)C | i
O=C(C[C@H]1C[C@H]2c3cc(NC(=O)NC4CCCC4)ccc3O[C@H]2[C@@H](CO)O1)NC1CCCCC1 | i
CO[C@@H](CN(C)S(=O)(=O)c1ccc(C)cc1)[C@@H](C)CN([C@H](C)CO)S(=O)(=O)c1cccc(Cl)c1 | i
O=C(C[C@@H]1CC[C@H](NS(=O)(=O)c2ccccc2F)[C@H](CO)O1)NCCCN1CCOCC1 | i
CCCNC(=O)N1[C@@H](CO)[C@H](c2ccccc2)C12CN(C(=O)CC)C2 | i
O=C(C[C@@H]1CC[C@@H]2[C@H](COC[C@H](O)CN2S(=O)(=O)c2ccccc2)O1)NCCN1CCCCC1 | i
C[C@H]1CN([C@@H](C)CO)C(=O)c2cccc(NS(=O)(=O)c3cn(C)cn3)c2O[C@H]1CN(C)CC1CCCCC1 | i
C[C@H]1CCCCO[C@@H](CN(C)Cc2ccccc2)[C@@H](C)CN([C@@H](C)CO)C(=O)c2cc(NC(=O)Nc3ccc4c(c3)OCO4)ccc2O1 | i
Cc1ccc(S(=O)(=O)N(C)C[C@H]2OCCCC[C@@H](C)Oc3ccc(NS(=O)(=O)c4cccs4)cc3C(=O)N([C@@H](C)CO)C[C@@H]2C)cc1 | i
CO[C@H]1CC[C@@H]2CCOc3ccc(C#N)cc3C(=O)N(C)[C@@H](C)C(=O)N(C)C[C@H]1O2 | i
COc1ccccc1NC(=O)N1CC[C@@H]2[C@H]1c1cc(-c3ccccc3)ccc1N(C)[C@H]2CO | i
COc1cccc(-c2ccc(CC[C@H]3O[C@H]4CC[C@@H](CO)O[C@H]4C[C@@H]3NC(=O)c3cnccn3)cc2)c1 | i
CCCNC(=O)N1CC2(C1)CN(Cc1cccc(F)c1)[C@@H](CO)c1[nH]c3cc(OC)ccc3c12 | i
C[C@H](CO)N1C[C@H](C)[C@@H](CN(C)CC2CCCCC2)Oc2c(NS(C)(=O)=O)cccc2C1=O | i
